Screens (PubChem BioAssay)
AF4-AF9 inh: MLL-AF4/AF9 protein interaction inhibition; P42568; AlphaScreen, biotin-AF4 peptide binding to FLAG-AF9; inhibition, % at 10 µM; hit rate 0.47% among 350,000;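 active means every replicate reaching a set inhibition limit, whatever the replicate mean, cut at about 25% in these data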;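 further: 0% = plate neutral control median and 100% = total signal loss; the record names both 10 and 1 µM as test concentration; the first replicate is given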
Target sequence (P42568 whole entry, looked up): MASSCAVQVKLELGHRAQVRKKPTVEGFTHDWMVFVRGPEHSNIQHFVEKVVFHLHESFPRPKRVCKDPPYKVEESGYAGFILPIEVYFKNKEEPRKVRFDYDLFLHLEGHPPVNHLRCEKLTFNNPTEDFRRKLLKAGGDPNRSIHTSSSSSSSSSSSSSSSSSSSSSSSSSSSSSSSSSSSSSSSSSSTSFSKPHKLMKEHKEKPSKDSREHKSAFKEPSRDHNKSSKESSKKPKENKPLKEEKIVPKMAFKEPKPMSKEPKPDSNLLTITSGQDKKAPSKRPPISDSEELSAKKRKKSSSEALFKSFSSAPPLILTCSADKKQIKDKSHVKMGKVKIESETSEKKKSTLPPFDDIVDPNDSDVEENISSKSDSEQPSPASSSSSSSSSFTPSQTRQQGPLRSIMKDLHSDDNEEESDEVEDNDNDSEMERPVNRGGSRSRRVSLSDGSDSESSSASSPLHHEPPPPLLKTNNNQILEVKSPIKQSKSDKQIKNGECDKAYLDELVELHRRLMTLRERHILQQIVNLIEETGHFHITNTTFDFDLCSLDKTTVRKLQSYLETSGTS
An asterisk follows results filed as active. This is a subset; rates above refer to the full screens.

SMILES | AF4-AF9 inh
C/C=C/CN(C(=O)C#Cc1ccccc1)[C@H](CO[Si](C)(C)C(C)(C)C)c1ccccc1 | -2.7
O=C(C1=C[C@H](c2ccc(Br)cc2)C[C@H](OCc2ccc(CO)cc2)O1)N1CCN(Cc2ccccc2)CC1 | 0.6
Cc1ccc(F)cc1S(=O)(=O)N[C@@H]1CCN(Cc2ccc(-c3ccccc3)cc2)C1 | 0.7
C[C@H]1CN([C@@H](C)CO)C(=O)c2c(c3ccccc3n2C)-c2ccccc2CO[C@@H]1CN(C)S(=O)(=O)c1ccccc1C#N | -0.7
CC(=O)c1ccc(OCCCC(=O)Nc2ccc(Cl)c(S(=O)(=O)N3CCOCC3)c2)cc1 | 0.9
COc1cc(O)c(C(C)=O)c(OC)c1 | -1.7
CS(=O)(=O)N[C@@H]1C[C@@H]2O[C@@H](CO)CC[C@@H]2O[C@@H]1CCc1ccc(/C=C/c2ccccc2)cc1 | 2.6
[N-]=[N+]=NCc1ccccc1C[C@@]1(C(=O)N2CCOCC2)N=C(c2ccc(OCCCO)cc2)O[C@@H]1c1ccccc1 | 2.7
CN1CCN(C(=O)C2=C[C@H](c3ccccc3)C[C@H](OCCCCO)O2)CC1 | -2.2
C=CC[C@@H](OC(=O)Nc1ccc(SC)cc1)c1ccc(OCCO)cc1 | -3.1
O=C(C[n+]1ccc(C(=O)c2ccccc2)cc1)Nc1cccc([N+](=O)[O-])c1 | 6.6
COc1ccc(S(=O)(=O)N2CCN(Cc3ccc(OCCO)cc3)CC2)cc1 | 7.0
O=C(Nc1cccc2ccccc12)c1ccc2sc([C@H]3C[C@H](O)[C@@H](CO)O3)nc2c1 | -1.1
O=C(C1=C[C@H](c2ccc(C(F)(F)F)cc2)C[C@H](OCCCCO)O1)N1CCCCCCC1 | -1.5
COc1cccc([C@@H]2CC=C(C(=O)O)[C@H](c3ccc(Br)cc3)N2S(=O)(=O)c2ccc(C)cc2)c1 | 0.1
O=C(Nc1nnc([C@@H]2C[C@H](O)[C@@H](CO)O2)s1)c1ccccc1Cl | -2.1
Cc1ccc(N2C(=O)c3ccccc3[C@](C)(C(=O)O)[C@@H]2c2ccc(CO)cc2)nc1 | -1.8
O=C(NCc1ccccc1)[C@@]1(Cc2ccccc2)N=C(c2ccc(OCCCO)cc2)O[C@H]1c1ccccc1 | 4.2
C/C=C/[C@@H](CCn1cc(CCO)nn1)[Si](C)(C)c1ccc(OC)cc1 | -0.1
O=C(Nc1ccc(F)c(Cl)c1)c1csc([C@@H]2O[C@H](CO)[C@H](O)[C@H](O)[C@H]2O)n1 | -3.1
CCCCCCCCN1C(=O)[C@H](CC(=O)N2CCSCC2)C[C@@]2(C(=O)OC)CCCCC=C12 | -0.4
CCc1ccc(-c2ccc(SCC(=O)NC3CCCC3)nn2)cc1 | -1.4
CC(=O)Oc1ccccc1C(=O)OCO/N=[N+](\[O-])N1CCC[C@H]1C(=O)O | 1.5
COCCNc1nc2cc(-c3ccccc3OC)sc2c(=O)n1C | -1.7
COc1ccc(-c2ccc([C@H]3[C@H](C#N)N(C(=O)NC4CCCC4)[C@H]3CO)cc2)cc1 | -20
O=C(O)CCCc1ccccc1 | -4.7
O=C(Nc1ccc(F)c(Cl)c1)c1cc(C2CCCN(C(=O)c3cccs3)C2)on1 (configuration not stated) | -1.6
O=C(NCc1ccccc1)C1c2ccccc2OCC(=O)N1CCCN1CCOCC1 (configuration not stated) | -2.1
Cc1ccc(S(=O)(=O)NC[C@@H]2CC[C@@H]3[C@@H](CN3Cc3cc(-c4ccccc4)on3)O2)cc1 | -0.9
Cn1nc(C(C)(C)C)cc1NC(=O)C1(C)CCN1C(=O)C1(c2ccccc2)CCCC1 (configuration not stated) | 0.9

Already shown: an excerpt of the list.
SMILES | AF4-AF9 inh
O=C(Nc1nnc([C@@H]2C[C@H](O)[C@@H](CO)O2)s1)c1ccccc1Cl | -2.1
Cc1ccc(N2C(=O)c3ccccc3[C@](C)(C(=O)O)[C@@H]2c2ccc(CO)cc2)nc1 | -1.8

Remaining list, next part:
SMILES | AF4-AF9 inh
Cc1cc2nc(NC(=O)C3(C)CCCN(C(C)C)C3)[nH]c2cc1C (configuration not stated) | 0.4
NC(=O)c1csc(C2OC(CO)C(O)C2O)n1 (configuration not stated) | -2.3
CO[C@@H]1CN(C)C(=O)c2cc(NS(=O)(=O)C3CCCCC3)ccc2OC[C@H](C)NC[C@@H]1C | -1.2
O=c1[nH]c(=O)n(C2OC(CO)C(O)C(O)C2O)cc1F (configuration not stated) | -1.5
COc1ccccc1/C=C/C=O | -3.2
C[C@H]1CN([C@@H](C)CO)C(=O)c2cccc(NS(=O)(=O)c3cccs3)c2O[C@@H]1CN(C)C(=O)Nc1ccc(C(F)(F)F)cc1 | -0.9
O=c1[nH]cnc2c1nnn2C1OC(CO)C(O)C1O (configuration not stated) | 1.8
CC(C)(C)N1C(=O)c2c(C(=O)OCc3ccccc3)[nH]c(-c3ccccc3)c2C1=O | -1.2
CC(C)NC(=O)[C@@]1(Cc2ccccc2I)c2ccccc2C(=O)N(Cc2ccccc2C(F)(F)F)[C@H]1c1ccc(CO)cc1 | 0.7
CN1c2ccc(C3=CCCCC3)cc2[C@H]2[C@H](CCN2C(=O)C2CC2)[C@@H]1CO | 69*
CCCCn1c(O)c2n(c1=O)Cc1ccccc1N=C2c1ccc(C)cc1 | 1.5
Cn1c(=O)c2cc(NC(=O)NCCc3ccccc3)ccc2n1Cc1ccccc1 | 0.5
O=C(OCCOc1ccccc1Cl)c1cc(S(=O)(=O)N2CCCCC2)ccc1N1CCOCC1 | 0.2
CC1(C)OC2CC3C4CCC5=CC(=O)C=CC5(C)C4(F)C(O)CC3(C)C2(C(=O)CO)O1 (configuration not stated) | -1.4
CCO[C@H]1OC(C(=O)N2CCCCCCC2)=C[C@@H](C2CC2)[C@@H]1CCCO | -0.7
COc1ccc(CNC(=O)N(C)C[C@H]2OCc3ccccc3-c3c(n(C)c4ccccc34)C(=O)N([C@@H](C)CO)C[C@@H]2C)cc1 | 1.5
c1cnc2ccc(-n3ccnc3)cc2c1 | -3.7
CC(NC(=O)C=Cc1ccco1)C(=O)NC(Cc1ccccc1)C(N)=O (configuration not stated) | -4.0
COC(=O)C1=COC(OC2OC(CO)C(O)C(O)C2O)C2C(C)CC(=O)C12 (configuration not stated) | 3.0
CC(=O)NC(c1cccc(F)c1)c1nc(-c2cc(F)cc(Cl)c2)cs1 (configuration not stated) | -2.3
CC1=C(O)c2ccccc2C(=O)C1=O | 5.5
CC(=O)O[C@H]1[C@@H](O)[C@H](O)[C@H](Oc2c(O)c(C)c3c4c2[C@@H](C)CC[C@@H]4[C@@H](C)C[C@@H]3C=C(C)C)O[C@H]1C | 15
O=C(OC[C@@H]1[C@H]2c3ccccc3O[C@]1(CO)N=C1Sc3ccc([N+](=O)[O-])cc3C(=O)N12)c1ccccc1 | -13
Cc1ccc(C(C)C)cc2c(C)ccc1-2 | 5.3
O=C(NCc1ccc(F)cc1)[C@@H]1C[C@@H]2C(=O)N3CCC[C@H]3C(=O)N2[C@@H]1c1cccc(OCCO)c1 | -4.0
C[C@H](CO)N1C[C@H](C)[C@H](CN(C)Cc2ccc(F)cc2)Oc2ncc(-c3cccc(C#N)c3)cc2C1=O | 2.8
O=C(C1CCC1)N1CCCCN2[C@H](CO)[C@@H](c3ccc(-c4cccc(F)c4)cc3)[C@@H]2C1 | -4.6
CCOc1ccc(CN(C)Cc2cc(=O)oc3c(C)c(C)ccc23)cc1OC | -1.2
CCCCCCCCN1C(=O)[C@H](CC(=O)NCc2ccccc2)C[C@@]2(C(=O)OC)CCCCC=C12 | -2.7
C/C=C/c1cnc2c(c1)C(=O)N([C@H](C)CO)C[C@H](C)[C@@H](CN(C)S(=O)(=O)c1cccs1)O2 | 1.4

Records listed so far marked active in AF4-AF9 inh:
SMILES | AF4-AF9 inh
CN1c2ccc(C3=CCCCC3)cc2[C@H]2[C@H](CCN2C(=O)C2CC2)[C@@H]1CO | 69*

Next section:
SMILES | AF4-AF9 inh
N=C(N)n1ncc2c1CCCC2=O | 5.0
O=S(=O)(c1ccc(F)cc1)N1CCCCN2[C@@H](CO)[C@H](c3ccc(C#CC4CCCC4)cc3)[C@@H]2C1 | 2.5
COc1ccccc1CNc1nc2cc(-c3ccsc3)sc2c(=O)n1C | -3.9
COc1ccc([Si](C)(C)[C@H]2[C@H](CCn3cc([C@H](O)c4ccccc4)nn3)O[C@@]3(C(=O)N(Cc4cccc(N5CCC5=O)c4)c4ccccc43)[C@@H]2C)cc1 | 3.3
COc1cc(CO)cc(I)c1O[C@H]1C=C(C(=O)NCCO)C[C@@H](N(CC2CCCCC2)C(=O)c2cc3ccccc3oc2=O)[C@@H]1O | -1.9
COc1cc2c(cc1OC)CN(C(=O)[C@@H]1[C@H]3C(=O)O[C@H](c4ccccc4)[C@H](c4ccccc4)N3[C@H](c3ccc(OCCO)cc3)[C@@]13C(=O)Nc1ccc(C#CCNC(N)=O)cc13)CC2 | -2.1
CN1C(=O)c2cc(NC(=O)c3ccc(F)c(F)c3)ccc2OC[C@H]2O[C@@H](CC(=O)N3CCOCC3)CC[C@@H]21 | -0.1
CC(C)(C)NC(=O)C1c2ccccc2OCC(=O)N1CC(F)(F)F (configuration not stated) | 0.1
O=C(NN=Cc1ccccc1O)C(=O)Nc1ccc(F)cc1 | -11
NC(=O)[C@@H]1[C@H]2C(=O)O[C@H](c3ccccc3)[C@H](c3ccccc3)N2[C@H](c2ccccc2OCCO)[C@@]12C(=O)Nc1ccccc12 | 14
COc1ccc(/C=C/c2cc(O)cc(OC3OC(CO)C(O)C(O)C3O)c2)cc1 (configuration not stated) | 1.8
CCCC#Cc1ccc(CC[C@H]2O[C@H]3CC[C@H](CO)O[C@H]3C[C@H]2NC(=O)CN2CCOCC2)cc1 | 1.8
CC(C)c1cn([C@H]2C[C@@H]3O[C@@H](CO)CC[C@@H]3O[C@@H]2CCc2ccc(-c3ccccc3)cc2)nn1 | -2.9
COc1cccc(S(=O)(=O)N(C)C[C@@H]2Oc3ncc(C#Cc4ccccc4)cc3C(=O)N([C@H](C)CO)C[C@@H]2C)c1 | -0.8
COc1ccc([Si](C)(C)[C@@H]2[C@@H](CCn3cc([C@H](O)c4ccccc4)nn3)O[C@]3(C(=O)N(Cc4cccc(N5CCC5=O)c4)c4ccccc43)[C@H]2C)cc1 | -13

The closing 7 entries of the section before lead into the next.
SMILES | AF4-AF9 inh
O=C(NN=Cc1ccccc1O)C(=O)Nc1ccc(F)cc1 | -11
NC(=O)[C@@H]1[C@H]2C(=O)O[C@H](c3ccccc3)[C@H](c3ccccc3)N2[C@H](c2ccccc2OCCO)[C@@]12C(=O)Nc1ccccc12 | 14
COc1ccc(/C=C/c2cc(O)cc(OC3OC(CO)C(O)C(O)C3O)c2)cc1 (configuration not stated) | 1.8
CCCC#Cc1ccc(CC[C@H]2O[C@H]3CC[C@H](CO)O[C@H]3C[C@H]2NC(=O)CN2CCOCC2)cc1 | 1.8
CC(C)c1cn([C@H]2C[C@@H]3O[C@@H](CO)CC[C@@H]3O[C@@H]2CCc2ccc(-c3ccccc3)cc2)nn1 | -2.9
COc1cccc(S(=O)(=O)N(C)C[C@@H]2Oc3ncc(C#Cc4ccccc4)cc3C(=O)N([C@H](C)CO)C[C@@H]2C)c1 | -0.8
COc1ccc([Si](C)(C)[C@@H]2[C@@H](CCn3cc([C@H](O)c4ccccc4)nn3)O[C@]3(C(=O)N(Cc4cccc(N5CCC5=O)c4)c4ccccc43)[C@H]2C)cc1 | -13
O=C1O[C@@H](c2ccccc2)[C@@H](c2ccccc2)N2[C@@H](c3ccccc3OCCO)[C@]3(C(=O)Nc4ccc(C#CCCO)cc43)[C@@H](C(=O)N3CCN(c4ncccn4)CC3)[C@H]12 | -1.0
O=C(NC[C@@H]1CC[C@@H]2[C@@H](CN2C(=O)CN2CCOCC2)O1)NC1CCCCC1 | 0.3
COc1ccc(C(C#N)=Cc2cc(OC)c(OC)c(OC)c2)cc1 | 3.9
Cc1ccccc1CNC(=O)c1ccc2nc([C@@H]3O[C@H](CO)[C@H](O)[C@H](O)[C@H]3O)[nH]c2c1 | -0.7
CC(C)[C@H](NC(=O)[C@@H]1Cc2c([nH]c3ccccc23)C2c3ccccc3C(=O)N21)C(=O)N1CCC[C@H]1C(=O)O (some centres not stated) | -0.4
C=CCN1C(=O)[C@@]2(O[C@@H](CCO)[C@H]([Si](C)(C)c3ccc(OC)cc3)[C@H]2C)c2cc(N3CCCCC3=O)ccc21 | 3.7
O=C(C[C@@H]1CC[C@@H](NC(=O)Nc2ccccc2F)[C@H](CO)O1)NCc1ccccc1 | -1.6
C[C@@H]1CCCCO[C@@H](CN(C)Cc2ccc3c(c2)OCO3)[C@@H](C)CN([C@@H](C)CO)C(=O)c2cc(NC(=O)Nc3ccc(C(F)(F)F)cc3)ccc2O1 | 3.3
C=CCNC(=O)[C@@H]1[C@H]2C(=O)O[C@H](c3ccccc3)[C@H](c3ccccc3)N2[C@H](c2ccc(O)cc2)[C@@]12C(=O)Nc1ccc(C#CCC(C(=O)OC)C(=O)OC)cc12 | -2.6
Cc1ccc(S(=O)(=O)Nc2ccc3c(c2)C(=O)c2ccccc2-3)cc1 | 1.5
CCO[C@H]1OC(C(=O)N2CCCC2)=C[C@@H](c2ccc3c(c2)OCO3)[C@@H]1CCCO | -0.4
O=C(NC1CCCC1)C1c2ccccc2OCC(=O)N1Cc1ccccn1 (configuration not stated) | -1.2
C[C@H](CO)N1C[C@H](C)[C@H](CN(C)CC2CC2)Oc2ccc(NC(=O)CCCCCC(=O)Nc3ccccc3N)cc2C1=O | -2.3
O=C1N(CCS(=O)(=O)c2ccccc2)c2ccccc2[C@@H]2OC(c3ccc(OCCCO)cc3)=N[C@]12CCS(=O)(=O)c1ccccc1 | -6.7
COc1ccc([Si](C)(C)[C@@H]2[C@@H](CCn3cc(CCO)nn3)O[C@]3(C(=O)N(Cc4cccc(N5CCOC5=O)c4)c4ccccc43)[C@H]2C)cc1 | 3.5
Cc1ccc(F)cc1C(=O)N1CCCCC1c1cc(C(=O)Nc2ccc(F)c(Cl)c2)no1 (configuration not stated) | 3.4
O=C(Nc1cccc(Cl)c1Cl)c1ccco1 | -6.8
COc1ccc([Si](C)(C)[C@H]2[C@H](CCO)O[C@@]3(C(=O)N(Cc4ccccc4)c4ccc(N5CCCCC5=O)cc43)[C@@H]2C)cc1 | 2.2
